# miR-21 FLuc: raises the signal of a miR-21 reporter; HeLa miR-21 FLuc reporter, luciferase, 48 h; Potency, µM (series often up to 38.3 µM), for inactives: top-dose reporter change, positive = more light; 340,000 tested, under 10 active; AID 2288; active = well fitted rising curve with a large enough effect; inconclusive = small, poorly fitted or top-dose-only effect; inactive = no such curve, though single readings can be large or run the other way;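 note: % of control where 0% means no effect; miR-21 action dims this reporter so a rising signal means less miR-21 action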
#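 HeLa cells stably expressing CMV-driven firefly luciferase with a downstream miR-21 binding sequence, endogenously expressing miR-21, were treated with titrations (up to about 40uM final) for 48 hours at 37 degree Celsius. Luciferase luminescence was read after lysis.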
# GLA inh pH 4.5: alpha-galactosidase A (human) inhibition, pH 4.5; activity change, negative = inhibition, % at 105 µM; 230,000 tested, under 10 active; purified enzyme, 4-MU-alpha-Gal fluorescence, pH 4.5; inconclusive = small, poorly fitted or top-dose-only inhibition, or a rising curve; inactive = flat fitted curve, though single readings scatter; no compound was filed as active;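 note: 0% = full activity with enzyme and -100% = basal without enzyme; dose as in the result columns while the protocol names 77 µM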
# Rango dissoc inh: inhibition of RanGTP-driven Rango-importin beta dissociation. O95149+P62826. Biochemical FRET Rango-importin beta, RanGTP-induced dissociation. Potency, µM (doses to about 46.1 µM), without a hit: top-dose activity change, negative = inhibition. 340,000 compounds, 0.071% hits. AID 540253; active means falling FRET ratio curve, often poorly fitted, with flat reads before Ran was added; inconclusive means other falling curves, or compound fluorescence or quenching; inactive means flat or rising ratio curve;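 note: potency is the fitted concentration of half-maximal effect; % of control where 0% means no effect; nearly all actives have a fitted effect of over 45% in size; -100% = wells without RanGTP and RCC1; the record marks most hits as doubtful in a second field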
#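 Compounds preincubate 5 min with complex of recombinant Rango and importin beta in PBS with 1 mM DTT. Ran (0.6 uM) loaded with 2 mM GTP plus 0.2 uM RCC1 starts dissociation; FRET is recorded 45 min later.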
# Rango complex inh: inhibitors of Rango-importin beta complex formation | Potency, µM (series often up to 92.2 µM), for the others: at the top dose inhibition of complex formation | 340,000 compounds, 0.031% hits | AID 540263 | Rango CFP/YFP FRET sensor + importin beta, 45 min | Q14974; active = rising FRET ratio curve, often small or poorly fitted; inconclusive = mostly compound fluorescence or quenching in the first reads; inactive = flat curves in all reads;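 note: potency is the fitted concentration of half-maximal effect; 0% = DMSO wells and 100% = buffer wells lacking importin beta; nearly all actives have a fitted effect of over 15% in size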
# Target sequence (Q14974 whole entry, looked up): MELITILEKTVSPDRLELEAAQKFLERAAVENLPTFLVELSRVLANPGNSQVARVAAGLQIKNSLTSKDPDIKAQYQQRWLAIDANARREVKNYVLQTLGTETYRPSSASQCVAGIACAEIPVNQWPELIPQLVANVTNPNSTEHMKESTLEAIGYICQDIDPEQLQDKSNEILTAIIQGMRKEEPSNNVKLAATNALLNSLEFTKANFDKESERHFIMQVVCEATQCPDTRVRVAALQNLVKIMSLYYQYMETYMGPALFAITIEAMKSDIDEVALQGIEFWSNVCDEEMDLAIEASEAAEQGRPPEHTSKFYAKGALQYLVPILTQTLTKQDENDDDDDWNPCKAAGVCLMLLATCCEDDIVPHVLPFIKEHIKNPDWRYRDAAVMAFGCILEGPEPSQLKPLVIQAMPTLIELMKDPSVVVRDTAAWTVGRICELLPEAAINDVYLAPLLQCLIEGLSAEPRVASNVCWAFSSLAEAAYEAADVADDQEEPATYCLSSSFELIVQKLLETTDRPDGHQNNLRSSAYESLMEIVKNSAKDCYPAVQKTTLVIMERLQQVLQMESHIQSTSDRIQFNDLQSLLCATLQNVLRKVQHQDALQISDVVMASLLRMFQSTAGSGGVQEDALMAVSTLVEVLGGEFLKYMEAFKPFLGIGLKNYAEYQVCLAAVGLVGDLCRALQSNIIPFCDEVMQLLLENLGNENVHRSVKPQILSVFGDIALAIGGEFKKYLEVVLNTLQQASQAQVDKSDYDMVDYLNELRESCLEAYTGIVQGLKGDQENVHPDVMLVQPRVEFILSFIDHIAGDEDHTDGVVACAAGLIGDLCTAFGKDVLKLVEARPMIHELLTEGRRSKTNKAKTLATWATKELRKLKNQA
#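 Inhibition scored from the CFP 486 nm/YFP 530 nm FRET ratio 45 min after adding 0.125 microM importin beta to 50 nM Rango biosensor preincubated 5 min with compound (room temperature, PBS with DTT, Tween-20, BSA). No-importin wells as positive control.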
# An asterisk follows results filed as active; ? = inconclusive; nt = not tested or not shown.
SMILES,miR-21 FLuc,GLA inh pH 4.5,Rango dissoc inh,Rango complex inh
S=C(NCCc1ccccc1)NCC1CCCO1 (stereo not drawn),-49%,-1,-5%,-1.7%
COc1cccc(N=CNc2cccc(OC)c2)c1,nt,nt,-10%,1.8%
CCN(CC)CCN(C(=O)c1ccc(Br)s1)c1nc2cc3c(cc2s1)OCO3,1%,3,1%,0.5%
CCOc1ccc(OCCC(=O)N2CCN(S(=O)(=O)c3ccc(OCC)cc3)CC2)cc1,3%,nt,5%,0.7%
Cc1cc(C(F)(F)F)c2c(C)nn(CCc3nn[nH]n3)c2n1,0%,?,-11%,0.0%
O=C(Nc1cccc(F)c1)C1CCN(S(=O)(=O)c2cccc3nonc23)CC1,14%,nt,-17%,5.2%
C=CCn1c(-c2cc(OC)cc(OC)c2)n[nH]c1=S,-5%,1,3%,-3.6%
CC(CC(C)C(=O)N1CCOCCN(C(=O)C(C)CC(C)C(=O)O)CCOCC1)C(=O)O (stereo not drawn),0%,7,-20%,-2.2%
CCOc1ccc2oc(=O)cc(C)c2c1,-16%,-6,4%,?
CC(C)C(=O)Nc1sc2c(c1C#N)CCCCC2,-36%,1,8%,1.9%
O=C(NC1CCCCCC1)c1ccc(S(=O)(=O)NCc2ccco2)cc1,1%,0,-5%,?
CS(=O)(=O)N(CCC(=O)O)Cc1ccccc1,0%,4,-6%,0.0%
COc1cc(OC)c(C(=O)NC23CC4CC(CC(C4)C2)C3)cc1OC,-7%,nt,25%,8.1%
CCCOc1ccc(Br)cc1/C=N/O,0%,11,6%,-3.1%
CCOC(=O)C(C)OC(=O)C1=C(C)NC(=O)NC1c1ccc2c(c1)OCO2 (stereo not drawn),3%,nt,-18%,-1.2%
CC(C)(C)c1cc(C(=O)NCc2ccco2)ccn1,-4%,3,-6%,0.6%
CC(C)(C)OC(=O)N(CCc1ccccc1)Cc1cccc(OCc2cccc(NC(=O)/C=C/c3ccccc3)c2)c1,nt,nt,1%,1.2%
Cc1ccc(-c2nn(-c3ccccc3)cc2/C=C2\SC(=S)N(CCCCCC(=O)O)C2=O)o1,-12%,nt,?,?
CC(C)CCC1(C)NC(=O)N(CC(=O)c2ccc[nH]2)C1=O (stereo not drawn),nt,nt,6%,0.0%
CCn1c(/C=C2\C(=O)N(C)c3ccccc32)nc2ccccc2c1=O,-9%,-9,-1%,0.3%
Cc1sc(-n2cccc2)c(C(=O)O)c1C,-2%,0,-15%,-0.1%
O=C1CC(N2CCC(O)(c3ccc(Cl)cc3)CC2)C(=O)N1Cc1ccc(N2CCCC2=O)cc1 (stereo not drawn),13%,-1,-21%,-0.7%
CN(C)c1nc(NNC(=O)c2ccccc2)nc(N(C)C)n1,nt,nt,-5%,-0.2%
O=C(CCn1nnc2ccccc21)Nc1nnc(-c2ccccc2F)s1,-7%,4,-2%,0.0%
CCCC(=O)NNC(=O)c1ccoc1C,-9%,-1,14%,5.6%
CC(C)(C)C(=O)Nc1cc(C(F)(F)F)ccc1-n1ccnc1,0%,-8,-9%,0.3%
O=C(CC1C(=O)NCCN1Cc1c(F)cccc1Cl)NCCc1ccccn1 (stereo not drawn),-6%,-13,-21%,-3.8%
O=S(=O)(c1ccc2ccccc2c1)N(CC1CO1)c1ccccc1 (stereo not drawn),-6%,-11,8%,0.1%
CC(NC(=O)c1cccnc1)c1ccc2c(c1)OCO2 (stereo not drawn),-4%,-18,0%,0.5%
CCOC(=O)N1CCC(NC(=O)CN2C(=O)CSc3ncccc32)CC1,-1%,7,5%,-0.8%
COc1ccc(NC(=O)Nc2cc(C)ccn2)cc1,nt,nt,4%,-3.3%
CCCc1cc(C(N)=O)c(NC(=O)c2ccco2)s1,-21%,5,1%,-0.2%
CCn1cc(CN2CCCC(C(=O)Nc3ccc(-c4nc5ccccc5[nH]4)cc3)C2)c(C)n1 (stereo not drawn),-34%,nt,0%,3.3%
C[C@H]1CN([C@@H](C)CO)C(=O)Cc2cc(NC(=O)Cn3cnnn3)ccc2O[C@H]1CN(C)Cc1ccncc1,nt,nt,-3%,-5.6%
O=C(COc1ccccc1)NCc1ccc2c(c1)OCO2,-18%,7,1%,-3.0%
COCCn1c(=NC(C)=O)sc2cc([N+](=O)[O-])ccc21,-2%,-1,?,-1.3%
Cc1ccc(NC(=O)C2(c3ccccc3)CCCC2)nc1,nt,nt,21%,-2.9%
Cc1ccc2c(c1)C1CN(C)CCC1N2C(=O)Nc1ccc(Cl)cc1 (stereo not drawn),-22%,0,5%,-1.6%
COc1cc(/C=N/NC(=O)Cc2ccc(Br)cc2)cc(OC)c1O,-4%,6,-5%,-1.9%
COc1ccc(S(=O)(=O)Cc2ccc(C(=O)NC3CC3)o2)cc1,-1%,3,0%,-0.4%

# Full records, quoted from the list. Values in the order: miR-21 FLuc | GLA inh pH 4.5 | Rango dissoc inh | Rango complex inh
# `O=C(COc1ccccc1)NCc1ccc2c(c1)OCO2` in the list: -18% | 7 | 1% | -3.0%
# `CCCc1cc(C(N)=O)c(NC(=O)c2ccco2)s1` in the list: -21% | 5 | 1% | -0.2%
# `COc1ccc(NC(=O)Nc2cc(C)ccn2)cc1` in the list: nt | nt | 4% | -3.3%

# A few values from the list:
# In Rango dissoc inh, CCn1cc(CN2CCCC(C(=O)Nc3ccc(-c4nc5ccccc5[nH]4)cc3)C2)c(C)n1 (stereo not drawn) shows 0%
# In Rango complex inh, CCOc1ccc(OCCC(=O)N2CCN(S(=O)(=O)c3ccc(OCC)cc3)CC2)cc1 shows 0.7%

# The results go on:
SMILES,miR-21 FLuc,GLA inh pH 4.5,Rango dissoc inh,Rango complex inh
C#CCOCCOCCOCCNc1nc(N2CCN(C(=O)[C@H](CCCCN)n3cc([C@@H](N)CC(C)C)nn3)CC2)nc(N2CCN(C(=O)[C@H](Cc3ccc(O)cc3)n3cc([C@@H](N)CC(C)C)nn3)CC2)n1,1%,7,-3%,1.8%
Cc1oc2nc(SCC(=O)N3CCCCC3)nc(N)c2c1C,-7%,-1,1%,-1.3%
CC1CCC(NC(=O)c2cc(S(=O)(=O)N3CCCCC3)ccc2N2CCOCC2)CC1 (stereo not drawn),nt,nt,5%,2.1%
COc1ccccc1CNC(=O)CSC1=NCCS1,-25%,7,2%,9.8%
CCOC(=O)C1=C(Cc2ccc(OC)cc2)C(=O)c2ccccc2C1=O,?,1,?,?
Cn1ncc(C(N)=O)c1NC(=S)NC(=O)c1ccc(Br)o1,-2%,4,-14%,-2.5%
CC1CC(C)CN(S(=O)(=O)c2ccc(C(=O)N3CC(C)OC(C)C3)cc2)C1 (stereo not drawn),0%,nt,7%,4.0%
Cc1nn(Cc2ccccc2Cl)c(Cl)c1C(=O)NCCc1ccccc1,-80%,4,1%,-1.3%
Cc1cccc(C)c1NC(=O)CCCCCC1NC(=O)NC1C (stereo not drawn),4%,1,-3%,-2.5%
CCOCCCNC(=O)CN1C(=O)/C(=C/c2ccccc2C)Sc2ccccc21,15%,-10,2%,-0.2%
Cc1ccc2nc(-c3cccc(NS(C)(=O)=O)c3)cc(-c3ccccc3)c2c1,0%,-4,6%,2.1%
Cc1ccc(NC(=O)C2CCCN(S(=O)(=O)c3cccc4nonc34)C2)cc1 (stereo not drawn),2%,nt,-7%,5.2%
COc1ccc(CCCC(=O)O)c(C)c1,-6%,nt,17%,0.4%
Oc1cc(NCc2ccc(F)cc2)cc2cccnc12,nt,nt,15%,2.4%
CC(=O)Nc1ccc(S(=O)(=O)N2CN(c3ccc(C)cc3)c3nc4ccccc4nc32)cc1,nt,nt,-1%,-5.6%
COc1ccc(N2CC(C(=O)Nc3nc4ccc(F)cc4s3)CC2=O)c(OC)c1 (stereo not drawn),6%,nt,3%,0.4%
NC(=O)c1ccccc1N/C=C/C(=O)c1ccc(Cl)cc1Cl,-15%,7,?,?
CCOC(=O)C1=C(CN2CC(C)CC(C)C2)NC(=O)NC1c1ccc2c(c1)OCO2 (stereo not drawn),?,-14,1%,1.4%
CC(=O)Cc1nsc(NC(=O)c2ccc(-c3cccc(C(F)(F)F)c3)o2)n1,-3%,-5,11%,?
Cc1cc(C)c2c(-n3cccc3)c(C(=O)O)sc2n1,-8%,-4,?,0.2%
Cc1ccccc1C1(CCN2CCCCC2)CCOC(C)(C)C1 (stereo not drawn),-2%,8,0%,-0.4%
CCOc1cc(N2CCOCC2)c(OCC)cc1NC(=O)c1ccco1,-5%,-11,7%,-6.0%
Cc1ccc2c(c1)NC(=O)C(CC(=O)NCCCN1CCCC1)O2 (stereo not drawn),-8%,-3,11%,-0.2%
COc1ccccc1NC(=O)c1ccc(NC(=O)CN2CCCCC2)cc1,nt,nt,-13%,5.2%
CCOc1ccc(S(=O)(=O)n2cnc3cc(C)c(C)cc32)cc1,22%,4,25%,9.9%
COCCCn1c2nc3ccccc3nc2c2c(=O)n(CC3CCCO3)cnc21 (stereo not drawn),-1%,21,0%,-0.3%
CCN(CC)c1ccc(NC(=O)C2CCCC2)cc1,-36%,nt,2%,-1.5%
CS(=O)(=O)c1nc(S(=O)(=O)c2ccc(Cl)cc2)c(N2CCCCCC2)s1,-2%,nt,-10%,2.1%
C[C@H](NC(=O)c1ccco1)C(=O)NCCc1ccc(S(N)(=O)=O)cc1,-2%,1,-11%,-0.3%
CC(CN1CCCCC1)OC(=O)COc1ccc(Br)cc1 (stereo not drawn),-4%,nt,6%,-4.0%
CCOC(=O)c1c(C)[nH]c(C(=O)COC(=O)c2[nH]c(C)c(C(C)=O)c2C)c1C,2%,4,-3%,?
O=C(CCC1CCCN(Cc2ccc3c(c2)CCO3)C1)NCc1ccc(F)c(F)c1 (stereo not drawn),4%,-7,13%,3.6%
C=CCNC(=O)C1CC(=O)N(c2ccc(OCC(=O)N3CCCC3)cc2)C1 (stereo not drawn),-1%,nt,2%,-0.2%
CCCCN(CC)CCNC(=O)Cn1cnc2sc(C)c(S(=O)(=O)N3CCOCC3)c2c1=O,-2%,-5,-8%,-1.4%
COc1ccc(/C=N/NC(=O)c2cc(OC)c(OC)c(OC)c2)cc1CN1CCc2cc(OC)c(OC)cc2C1C (stereo not drawn),18%,-6,-13%,-2.5%
CCOc1cc2[nH]c(=S)n(Cc3ccc(C(=O)O)cc3)c(=O)c2cc1OCC,-12%,nt,1%,-0.1%
Cc1ccccc1NC(=O)Cn1nnc2ccccc21,-19%,5,10%,6.0%
CCC1CCCCN1CCCNC(=O)CNC(=O)c1nn(-c2ccc(OC)c(Cl)c2)c(=O)c2ccccc12 (stereo not drawn),-3%,nt,11%,0.2%
Cc1nnc(NC(=O)c2ccc(N3CCCC3=O)cc2)s1,nt,nt,-6%,-0.2%
CN1CCN(C(=O)c2ccc(-n3cccn3)nc2)CC1,-1%,0,-14%,-1.2%
COC(=O)COc1ccc(C2NC(=O)NC(C)=C2C(=O)NCc2ccccc2)cc1OC (stereo not drawn),-1%,-3,-10%,-0.5%
C(CCCN1CCCCC1)CCN1CCCCC1,nt,nt,5%,1.5%
Cc1nccc2[nH]c(=O)c(C(=O)NC(C)CCc3ccccc3)cc12 (stereo not drawn),-3%,-3,nt,nt
O=C(C1=C(O)C(=O)N(CCN2CCOCC2)C1c1cccc([N+](=O)[O-])c1)c1cccs1 (stereo not drawn),1%,nt,-13%,-2.6%
COc1cccc(N(CC(=O)NC2CCCCC2)C(=O)CCC(=O)Nc2nccs2)c1,-6%,nt,1%,-1.4%
COc1ccc(N(CC(=O)Nc2ccc3c(c2)OCO3)S(=O)(=O)c2ccccc2)cc1OC,-10%,0,21%,6.2%
COC(=O)c1sc2ccccc2c1-n1cccc1C(=O)C(=O)Nc1ccc(C)cc1,0%,-1,-3%,-4.6%
Cc1cccc(OCC(=O)Nc2cc(S(=O)(=O)N3CCCCC3)ccc2N2CCN(C)CC2)c1,8%,-5,3%,-0.6%
CN(C)CCNC(=O)c1ccc2c(c1)NC(=O)c1ccccc1S2,0%,nt,2%,0.3%
O=C(c1ccc(OC2CCN(Cc3ccccn3)CC2)cc1)N1CCCCCC1,-2%,3,-4%,?
O=C1CC(C(=O)Nc2ccc(Cl)cc2)n2ncnc2N1 (stereo not drawn),-2%,-3,6%,3.7%

# Only part of the results is shown (hit frequency here may not be typical).
